Screening results (PubChem BioAssay)
RE007 growth inh: less growth of the S. pombe RE007 Vpr strain | S. pombe RE007 Vpr strain, BacTiter-Glo ATP luminescence, 24 h; control for the full effect not named in the record | Potency, µM (top dose mostly 92.2 µM), without a hit: at the top dose activity change, negative = less growth | 360,000 compounds, 0.21% hits | AID 651644; active = well fitted falling curve with a large enough effect; inconclusive = small, poorly fitted or top-dose-only effect; inactive = no such curve, though single readings can be large or run the other way;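 note: % is set by controls: 0 for no effect and ±100 for the full control effect; nearly all actives have a fitted effect of over 50% in size; the assay follows cell death caused by Vpr and the record does not say whether a fall means rescue or toxicity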
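Fission yeast strain RE007, carrying one chromosomally integrated HIV-1 vpr copy, was seeded at OD 0.01 in PMG+AL medium with 23 nL pinned compound. After 24 h at 30 °C and 99% humidity, viability was read by BacTiter-Glo luminescence.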
MARV entry inh: inhibitors of Marburg virus binding or cell entry; Potency, µM (highest dose often 37.8 µM), for the others: at the top dose activity change, negative = inhibition, most hits filed as inhibitors; Marburg virus pseudotyped entry inhibition, cell reporter; control for the full effect not named in the record; about a third of the inactives were read at about 46 µM; 300,000 compounds, 1.8% hits; active = well fitted inhibition curve with a large enough effect; inconclusive = small, poorly fitted or top-dose-only effect, or effect the other way; inactive = flat fitted curve, though single readings scatter; tested in HEK293 cells; about a fifth of its hits are not listed in these tables; note: % is set by controls: 0 for no effect and ±100 for the full control effect; luciferase read-out
SARS PLP yeast: blocks SARS-CoV papain-like protease in a yeast assay; S. cerevisiae expressing SARS-CoV PLpro, growth rescue; control for the full effect not named in the record; Potency, µM (series often up to 32.9 µM), for the others: at the highest dose activity, positive = growth rescue; 330,000 compounds, 0.19% hits; AID 485353; note: 0% is about no effect; nearly all actives have a fitted effect of over 55% in size; growth read by luminescence after 48 h
LASV entry inh: inhibitors of Lassa virus binding or cell entry. 300,000 compounds, 1.2% hits. Lassa virus pseudotype entry inhibition, cell reporter; control for the full effect not named in the record. Potency, µM (top dose mostly 37.9 µM), for the others: at the top dose activity change, negative = inhibition, most hits filed as inhibitors; active means well fitted inhibition curve with a large enough effect; inconclusive means small, poorly fitted or top-dose-only effect, or effect the other way; inactive means flat fitted curve, though single readings scatter; tested in HEK293 cells; note: % is set by controls: 0 for no effect and ±100 for the full control effect; nearly all actives have a fitted effect of over 50% in size; luciferase read-out
NS1 function inh: inhibitors of influenza NS1 protein function; S. cerevisiae slowed by influenza A NS1, growth recovery by OD600; Potency, µM (doses to about 46.1 µM), without a hit: at the highest dose activity, positive = more growth; 270,000 compounds, 0.4% hits; note: actives are rising curves; nearly all actives have a fitted effect of over 50% in size
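Growth recovery, yeast-based: influenza A NS1 expressed in S. cerevisiae causes slow growth, and suppressors are detected by OD600. The parent strain without NS1 is used as positive control.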
Cruzain Triton: inhibitors of Trypanosoma cruzi cruzain with detergent; purified cruzain, Z-FR-AMC fluorescence, 0.01% Triton; P25779; 200,000 compounds, 0.43% hits; Potency, µM, without a hit: max response, negative = inhibition, actives largely listed as inhibitors; active = well fitted curve in the direction sought with a large enough effect; inconclusive = small, poorly fitted or top-dose-only effect, or another doubt; inactive = no such curve, though single readings can be large; an effect the other way counts as inactive or inconclusive;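 note: plate controls were neutral wells for no effect and buffer without enzyme for full effect; nearly all actives have a fitted effect of over 40% in size; top concentration of the series not given in the record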
Target sequence (P25779 123-467 limits assumed): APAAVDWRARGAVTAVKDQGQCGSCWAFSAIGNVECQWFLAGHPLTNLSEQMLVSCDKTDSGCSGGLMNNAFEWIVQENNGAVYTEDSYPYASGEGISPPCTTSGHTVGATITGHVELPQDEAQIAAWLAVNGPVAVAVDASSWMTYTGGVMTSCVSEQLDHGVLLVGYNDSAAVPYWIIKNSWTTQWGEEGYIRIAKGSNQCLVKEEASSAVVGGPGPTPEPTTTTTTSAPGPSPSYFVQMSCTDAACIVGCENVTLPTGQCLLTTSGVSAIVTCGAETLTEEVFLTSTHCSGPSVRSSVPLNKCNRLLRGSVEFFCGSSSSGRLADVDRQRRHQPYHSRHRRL
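15 min RT preincubation of 1.5 nM cruzain with compound, then 2 uM Z-FR-AMC added; kinetic AMC fluorescence, 60 s delta. Triton X-100 0.01%, pH 5.5.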
2A StopGo: FMDV 2A StopGo reporter, luciferase signal. Potency, µM (series often up to 57.9 µM), for inactives: top-dose signal change, negative = less light. human cells with a luciferase reporter of 2A StopGo recoding; control for the full effect not named in the record. 410,000 compounds, 1.2% hits. AID 1159524; active = well fitted falling curve with a large enough effect; inconclusive = small, poorly fitted or top-dose-only effect; inactive = no such curve, though single readings can be large or run the other way; tested in HEK293T cells; note: % is set by controls: 0 for no effect and ±100 for the full control effect; nearly all actives have a fitted effect of over 45% in size; luciferase light after 4 h
Cruzain inh noDet: cruzain (T. cruzi) inhibition without detergent; P25779; purified cruzain, Z-FR-AMC fluorescence, no detergent; Potency, µM, without a hit: max response, negative = inhibition, usual class: inhibitors; 200,000 compounds, 2.3% hits; AID 1476; active = well fitted curve in the direction sought with a large enough effect; inconclusive = small, poorly fitted or top-dose-only effect, or another doubt; inactive = no such curve, though single readings can be large; an effect the other way counts as inactive or inconclusive;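 note: plate controls were enzyme without inhibitor for no effect and buffer without enzyme for full effect; nearly all actives have a fitted effect of over 40% in size; top concentration of the series not given in the record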
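Purified cruzain at 1.5 nM, pre-incubated 15 min with compound at room temperature in 100 mM sodium acetate pH 5.5, 5 mM DTT, 0.00005% Triton X-100. Reaction started with 2 uM Z-FR-AMC; AMC fluorescence increase over 60 s gives rate.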
* = called active by the depositor; [ ] = another dose, or the depositor's remark. Unless noted, calls come from the whole dose curve; as a rule, active means well fitted rising curve with a large enough effect; inconclusive means small, poorly fitted or top-dose-only effect; inactive means no such curve, though single readings can be large or run the other way. Potency is the fitted concentration of half-maximal effect.

Nc1cc(S(=O)(=O)N2CCOCC2)ccc1Oc1ccc(F)cc1 was read as RE007 growth inh 14%, MARV entry inh inconclusive, SARS PLP yeast 2%, LASV entry inh 6%[46.1 µM] and 2A StopGo -21%.
For Cc1c(C#N)c2ccccc2n1CC(=O)NCc1cccnc1 the results were RE007 growth inh 0%, MARV entry inh -7%, SARS PLP yeast 6%, LASV entry inh -19%, NS1 function inh -12%, Cruzain Triton 3.5%, 2A StopGo -10% and Cruzain inh noDet 2%.
Cn1cccc1/C=C1\SC(=O)N(CC(=O)Nc2ccc(F)cc2)C1=O was read as RE007 growth inh 8%, MARV entry inh inconclusive, SARS PLP yeast 0%, LASV entry inh 5%, NS1 function inh -1% and 2A StopGo -2%.
For COc1ccc(S(=O)(=O)N(C)CC(=O)Nc2ccccc2OC)cc1 the results were RE007 growth inh -7%, MARV entry inh -3%, SARS PLP yeast -1%, LASV entry inh 1%, NS1 function inh -11%, Cruzain Triton 9.6%, 2A StopGo -9% and Cruzain inh noDet -4%.
O=C1C=C(NCc2ccc(Cl)cc2)CC(c2ccco2)C1 (stereo not drawn) was read as RE007 growth inh -4%, MARV entry inh -18%, SARS PLP yeast -2%, LASV entry inh inconclusive, NS1 function inh -4%, Cruzain Triton -2.5%, 2A StopGo -5% and Cruzain inh noDet 8%.
COc1cccc(CC2CC(=O)N(c3ccc4c(C)cc(=O)oc4c3)C2=O)c1 (stereo not drawn) was read as RE007 growth inh 17%, SARS PLP yeast 0%, NS1 function inh -2% and 2A StopGo -10%.
For O=C(Nc1ccc(Cl)cc1)Nc1nnc(Cc2ccc([N+](=O)[O-])cc2)s1 the results were RE007 growth inh 4%, SARS PLP yeast 1%, NS1 function inh -4%, Cruzain Triton -1.9%, 2A StopGo -15% and Cruzain inh noDet 7.9µM*.
Screening CCCCC1=CC2=CC(=O)C(C)(OC(=O)CC)C(=O)C2=CN1CCc1c[nH]c2ccccc12 (stereo not drawn) returned RE007 growth inh -13%, SARS PLP yeast -3%, NS1 function inh inconclusive and 2A StopGo -7%.
`CCOC(=O)N1CCC(N2Cc3cccc(C(=O)Nc4ccc(N(CC)CC)cc4C)c3C2=O)CC1` gave RE007 growth inh 5%, MARV entry inh 19%[46.1 µM], SARS PLP yeast 8%, LASV entry inh 25%[46.1 µM], NS1 function inh 1% and 2A StopGo -25%.
Screening Cc1oc(-c2cccs2)nc1CN1CCN(C2CCCC2)C(CCO)C1 (stereo not drawn) returned RE007 growth inh -14%, MARV entry inh inconclusive, SARS PLP yeast 1%, LASV entry inh -13%[46.1 µM], NS1 function inh 0% and 2A StopGo 9%.
`COc1ccc(S(=O)(=O)NC(CC(=O)NCc2ccccc2OC)c2ccco2)cc1` (stereo not drawn) gave RE007 growth inh -4%, MARV entry inh -21%, SARS PLP yeast 2%, LASV entry inh -26%, NS1 function inh -4%, Cruzain Triton 3.3%, 2A StopGo 7% and Cruzain inh noDet 4%.
`O=C(COC(=O)CNC(=O)c1ccco1)Nc1ccc(F)cc1` gave RE007 growth inh 6%, MARV entry inh -1%[46.1 µM], SARS PLP yeast 3%, LASV entry inh inconclusive and 2A StopGo -2%.
CCOC(=O)c1c(NC(=O)CN2C(=O)c3ccccc3C2=O)sc(Cc2ccc3c(c2)OCO3)c1C was read as RE007 growth inh 9%, MARV entry inh -1%, SARS PLP yeast 3%, LASV entry inh -13%, NS1 function inh -19%, Cruzain Triton -1.0%, 2A StopGo 0% and Cruzain inh noDet 10µM*.
COc1cccc(-c2ccc(C#N)c(OC(=O)c3ccc(Cl)cc3)n2)c1 was read as RE007 growth inh -13%, MARV entry inh 11%, SARS PLP yeast -14%, LASV entry inh 8%, NS1 function inh -47%, Cruzain Triton -8.2%, 2A StopGo 0% and Cruzain inh noDet 3%.
CCC1CN1P(=O)(N1CCCC1)N1CC1CC (stereo not drawn) was read as RE007 growth inh 1%, MARV entry inh 21%, LASV entry inh 16% and 2A StopGo -8%.
Screening Cc1ccc(C(=O)Nc2cccc3cccnc23)cc1Br returned RE007 growth inh 0%, MARV entry inh inconclusive, LASV entry inh 10% and 2A StopGo 53%[activator].
Screening CC1Cc2ccccc2N1C(=O)CSc1nnc2sc3ccccc3n12 (stereo not drawn) returned RE007 growth inh -2%, MARV entry inh 16%, SARS PLP yeast -4%, LASV entry inh -2%, NS1 function inh -74%, Cruzain Triton -8.5%, 2A StopGo -14% and Cruzain inh noDet 11%.
Screening CSCCC1NC(=O)C(C(C)=NNC(N)=O)=C1O (stereo not drawn) returned RE007 growth inh -15%, MARV entry inh 2%, LASV entry inh 8% and 2A StopGo -17%.
`COCCNC(=O)c1ccc(NC(=O)C2(c3ccccc3)CCCC2)cc1` gave RE007 growth inh 17%, MARV entry inh -10%[46.1 µM], SARS PLP yeast 11%, LASV entry inh -11%[46.1 µM], NS1 function inh -10% and 2A StopGo -14%.
`CC1=CC(c2ccccc2)NC(=S)N1` (stereo not drawn) gave RE007 growth inh -12%, MARV entry inh inconclusive, SARS PLP yeast 25%, LASV entry inh -4%, NS1 function inh 17%, Cruzain Triton -0.2%, 2A StopGo -12% and Cruzain inh noDet 5%.
CCOc1ccc(NC(=O)CSc2nc(-c3cccs3)cc(C(F)(F)F)c2C#N)cc1 was read as MARV entry inh 0%[46.1 µM], LASV entry inh -24%[46.1 µM], Cruzain Triton -1.1%, 2A StopGo -11% and Cruzain inh noDet 4%.
`COc1ccc(-c2[nH]ncc2CN(C)Cc2c(C)n[nH]c2C)c(OC)c1` gave RE007 growth inh -3%, MARV entry inh 6%, SARS PLP yeast 1%, LASV entry inh 7%, NS1 function inh 5% and 2A StopGo -5%.
`COc1ccc(-c2cn(-c3ccc(C)cc3)c(=O)n2CC(=O)Nc2ccc(OC)cc2OC)cc1` gave RE007 growth inh inconclusive, MARV entry inh inconclusive, SARS PLP yeast 4%, LASV entry inh inconclusive, NS1 function inh 2%, Cruzain Triton -3.6%, 2A StopGo 10% and Cruzain inh noDet 12%.
CC1=Nn2c(nnc2-c2cccs2)SC1 was read as RE007 growth inh 2%, MARV entry inh 1%, SARS PLP yeast 5%, LASV entry inh -4%, NS1 function inh 1%, Cruzain Triton -0.9%, 2A StopGo -6% and Cruzain inh noDet 1%.
CCc1ccc(OCC(O)CN2CCCC2)cc1 (stereo not drawn) was read as RE007 growth inh 24%, MARV entry inh -5%, SARS PLP yeast -1%, LASV entry inh 8%, NS1 function inh 3% and 2A StopGo -2%.
COc1cc2[nH]c(=S)nc(NCc3cccs3)c2cc1OC was read as RE007 growth inh -3%, MARV entry inh -8%[46.1 µM], SARS PLP yeast -1%, LASV entry inh -3% and 2A StopGo 15%.
O=C(COC(=O)c1ccc(S(=O)(=O)N2CCCC2)cc1)Nc1cccnc1Cl was read as RE007 growth inh 7%, MARV entry inh -5%[46.1 µM], SARS PLP yeast -1%, LASV entry inh 15%[46.1 µM] and 2A StopGo -8%.
CCOc1ccc(Oc2ccc(C(F)(F)F)cc2N)cc1 was read as RE007 growth inh 16%, MARV entry inh inconclusive, SARS PLP yeast 1%, LASV entry inh inconclusive, NS1 function inh -5%, Cruzain Triton -5.5%, 2A StopGo -18% and Cruzain inh noDet 10%.
CC1CCC/C(=N\NC(=O)Nc2ccccc2)C1 (stereo not drawn) was read as RE007 growth inh -18%, MARV entry inh 3%, SARS PLP yeast -2%, LASV entry inh -2%, NS1 function inh 6%, Cruzain Triton -0.5%, 2A StopGo 56%[activator] and Cruzain inh noDet -11%.
COc1ccc(NC(=O)C(NC(=O)Cc2cccs2)c2ccccc2)cc1 (stereo not drawn) was read as RE007 growth inh -19%, MARV entry inh inconclusive, SARS PLP yeast -15%, LASV entry inh -1%, NS1 function inh 6%, Cruzain Triton 3.0%, 2A StopGo 24% and Cruzain inh noDet inconclusive.
Screening COc1ccc(C)cc1S(=O)(=O)Nc1cccc(-c2ccc(N3CCCCCC3)nn2)c1 returned RE007 growth inh 4%, SARS PLP yeast -4%, NS1 function inh 8% and 2A StopGo 8%.
CC(=O)Nc1ccc(OC(=O)c2cc3cc(Br)ccc3oc2=O)cc1 was read as RE007 growth inh -5%, MARV entry inh 19%, SARS PLP yeast 8%, LASV entry inh 1%, NS1 function inh 0%, Cruzain Triton -0.1%, 2A StopGo -5% and Cruzain inh noDet 0%.
Screening O=C1OCCN1P(=O)(c1ccccc1)c1ccccc1 returned RE007 growth inh -2%, MARV entry inh 9%[46.1 µM], SARS PLP yeast 13%, LASV entry inh 0%, NS1 function inh -2%, Cruzain Triton 3.0%, 2A StopGo -17% and Cruzain inh noDet 3%.
`CC1(C(=O)NC2CCCCC2)CCC(=O)N1Cc1cccnc1` (stereo not drawn) gave RE007 growth inh 2%, SARS PLP yeast 4%, NS1 function inh 11%, Cruzain Triton 2.7%, 2A StopGo 7% and Cruzain inh noDet 1%.
For COCc1nnc(NC(=O)CCC2CCCCC2)s1 the results were RE007 growth inh 3%, MARV entry inh 13%, SARS PLP yeast 1%, LASV entry inh 0%, NS1 function inh -10%, Cruzain Triton 2.3%, 2A StopGo 17% and Cruzain inh noDet -5%.
`CC(=O)/C=C(\C)Nc1c(C)n(C)n(-c2ccccc2)c1=O` gave RE007 growth inh 15%, MARV entry inh 3%[14.2 µM], SARS PLP yeast 1%, LASV entry inh 10% and 2A StopGo -11%.
`O=C(Oc1nsnc1N1CCOCC1)N1CCCCC1` gave RE007 growth inh -10%, MARV entry inh 22%, LASV entry inh 0%, NS1 function inh 4% and 2A StopGo -14%.
For COc1ccccc1OCCCC(=O)Nc1ccc2c(c1)OCCO2 the results were RE007 growth inh 2%, MARV entry inh 22%, SARS PLP yeast -5%, LASV entry inh 23%, NS1 function inh -6% and 2A StopGo 33%[activator].
